Source: PubChem BioAssay (ICCB-Longwood Screening Facility, Harvard Medical School)
RVFV N-RNA inh: inhibitors of Rift Valley Fever Virus nucleocapsid-RNA interaction; % bound, % (test concentration not listed); P21700; RVFV N-RNA binding, fluorescence polarization; active compounds read low; 20,000 tested, 0.1% active;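 active = between 0 and 58% in either replicate with normal brightness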;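 also: 100 nL library stock added to about 12 µL; 100% = protein and probe without compound and 0% = probe alone; numbers are from one replicate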
Target sequence (P21700 whole entry, looked up): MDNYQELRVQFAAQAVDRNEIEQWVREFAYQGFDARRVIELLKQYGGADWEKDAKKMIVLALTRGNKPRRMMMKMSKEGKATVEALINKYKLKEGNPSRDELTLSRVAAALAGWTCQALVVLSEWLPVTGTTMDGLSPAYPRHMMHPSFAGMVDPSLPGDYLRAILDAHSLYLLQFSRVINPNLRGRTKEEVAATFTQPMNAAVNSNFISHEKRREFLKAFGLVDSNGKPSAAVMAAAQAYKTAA
* hit, by the source's call; & = joins results of further samples. A portion of the library; count on the stated rates, not on these rows.

SMILES	RVFV N-RNA inh
O=[S@@]1c2ccccc2Nc2cc(C(F)(F)F)ccc21	98
COc1ccccc1CCNC(=O)c1ccc(C)o1	95
O=C(COc1ccc(S(=O)(=O)N2CCOCC2)cc1)NCc1ccccc1	95
CC(=O)Nc1nc(SCc2ccccn2)[nH]c(=O)c1NC(=O)c1ccccc1	98
O=C(NC(c1ccccc1)c1ccccc1)C1CC1	93
Ic1cccc(CSc2nnnn2-c2ccc3c(c2)OCO3)c1	101
O=C(Cc1ccccc1)N/N=C/c1ccncc1	94
O=C1C2C3C=CC(C3)C2C(=O)N1N1CCCCC1 (stereo unspecified)	94
Cn1cnc2c1c(=O)[nH]c(=O)n2C	100
COc1ccccc1N1C(=O)C=C(Nc2ccccc2)C1=O	97
O=C(NCc1ccco1)N1c2ccccc2Sc2ccccc21	107
CN(C)S(=O)(=O)N1CCC(C(=O)Nc2ccccc2)CC1	102
COC(=O)c1ccccc1COn1c(=O)c[n+]([O-])c2ccccc21	100
CS(=O)(=O)c1ccc(-c2nnn(Cc3ccccc3)n2)cc1	97
CCC(=O)N1C(c2ccccc2)=C(C)Sc2nnc(C)n21	88
CCCCCCCCCCC(C)(C)C(=O)Nc1c(OC)cc(OC)cc1OC	98
CCCCNC(=O)c1cc(S(=O)(=O)N(C)C)oc1C	98
O=c1[nH]c2ccc(NC(=S)Nc3ccccc3)cc2[nH]1	101
CCOC(=O)C(Cc1ccccc1)C(=O)Nc1ccc(OC)cc1 (stereo unspecified)	99
O=C(/C=C/c1cccs1)N1CCN(C(=O)/C=C/c2cccs2)CC1	105
NNC(=O)c1ccc(Oc2ccc(Cl)cc2)nc1	94
COC(=O)c1ccccc1NC(=O)Nc1ccc(C(=O)N2CCCC2)cc1	100
CNS(=O)(=O)c1cc(C)ccc1OC	83
Cc1ccc2oc(-c3ccc4c(c3)C(=O)N(C)C4=O)nc2c1	93
CCCN1CCN(C(=S)Nc2ccc(S(N)(=O)=O)cc2)CC1	90
CCN(CC)c1c(S(=O)(=O)c2ccccc2)cnc2cc3c(cc12)OCCO3	101
CCOC(=O)c1cc(C)n(-c2ccc(I)cc2)c1C	97
CCSCC(=O)Nc1ccc(F)cc1	97
COC(=O)c1cc(OC)c(OC)cc1NC(=S)N1CCN(c2ccccn2)CC1	90
COc1ccc(Cl)cc1NC(=S)N1CCCCC1CO (stereo unspecified)	95
CC(C)C(=O)Nc1nnc(-c2ccccc2)o1	99
COCC(C)NC(=O)c1ccccc1OC(C)=O (stereo unspecified)	86
CC(C)=CC(=O)Oc1ccc(Br)cc1	91
CCCCCc1c(C)c(C#N)c2nc3ccccc3n2c1-n1ccnc1	100
Cc1occc1C(=O)N/N=C/C1CCCCC1	88
CCOC(=O)C1CCN(C(=O)C2CCCCC2)CC1	91
Cc1cccc(-c2nc3scc(CCNC(=O)C(C)(C)C)n3n2)c1	93
COc1cccc2cc(C(=O)C3=C(O)C(=O)N(CCCN4CCOCC4)C3c3ccc(C)cc3)oc12 (stereo unspecified)	91
CN(C)c1cccc(N(C)C)c1CNC(=O)Nc1ccc(Cl)cc1	89
O=C(NC1C2CC3CC(C2)CC1C3)c1cccs1 (stereo unspecified)	92
CC1(C)SC2C(NC(=O)C(N)c3ccccc3)C(=O)N2C1C(=O)O (stereo unspecified)	96
Cc1ccccc1NC(=O)C1CC(=O)OC1(C)C (stereo unspecified)	94
CN1C(=O)CC[C@H]1c1cccnc1	105&89
CCN1CCN(Cc2cc(C(C)(C)C)c(O)c(C(C)(C)C)c2)CC1	84
O=C(O)COCCN1CCN([C@H](c2ccccc2)c2ccc(Cl)cc2)CC1	94
COC(=O)c1cc(OC)c(OC)cc1NC(=O)c1cnc(N(C)C)nc1C(F)(F)F	93
CCC(=O)N1CCN=C1SCc1ccccc1	97
O=C(CCc1ccc(O)cc1)c1c(O)cc(O)cc1O[C@@H]1O[C@H](CO)[C@@H](O)[C@H](O)[C@H]1O	93
OC(Cn1cnc2ccccc21)Cn1c2ccccc2c2ccccc21 (stereo unspecified)	85
CC(C)COC(=O)Oc1ccc(Br)cc1	111
CCn1c(=NC(=O)c2ccc(OC(C)C)cc2)sc2cc3c(cc21)OCO3	100
COc1cc2nc(N3CCCN(C)CC3)nc(NC3CCN(Cc4ccccc4)CC3)c2cc1OC	101
Cc1ccc(Sc2ccc(/C=C(\C#N)C(N)=O)o2)cc1	100
Cc1nn(-c2ccccc2)cc1/C=N/NC(N)=S	95
Cc1cccc(NC(=O)CC2OCCN(Cc3ccccc3)C2=O)c1 (stereo unspecified)	90
CCOC(=O)C1CCCN(Cc2ccc3ccccc3c2)C1 (stereo unspecified)	100
CC(CSc1nnnn1-c1ccccc1)Cn1c(Br)nc2c1c(=O)[nH]c(=O)n2C (stereo unspecified)	108
NC(N)=Nc1ccc2[nH]c3c(c2c1)C[C@@]1(O)[C@H]2Cc4ccc(O)c5c4[C@@]1(CCN2CC1CC1)[C@H]3O5	89
C=C1c2ccccc2NC(=O)N1c1ccccc1	105
CC(C)c1[nH]nc2oc(=N)c(C#N)c(-c3c(O)[nH]c4ccc(Br)cc34)c12	94

Structural class, the compounds so far with fluorine
SMILES	RVFV N-RNA inh
O=[S@@]1c2ccccc2Nc2cc(C(F)(F)F)ccc21	98
CCSCC(=O)Nc1ccc(F)cc1	97
COC(=O)c1cc(OC)c(OC)cc1NC(=O)c1cnc(N(C)C)nc1C(F)(F)F	93

Next section:
SMILES	RVFV N-RNA inh
CCCNc1sc(S(C)(=O)=O)nc1S(=O)(=O)c1ccc(Cl)cc1	108
CN1CCCN(Cc2cc(C(C)(C)C)c(O)c(C(C)(C)C)c2)CC1	90
O=C(c1sc2ccccc2c1Cl)n1ccc(-c2cccs2)n1	97
O=C1CN(C(=O)C2CCC2)CCN1	93
CN[C@@H]1[C@H](O[C@H]2[C@H](O[C@@H]3[C@@H](O)[C@H](O)[C@@H](N=C(N)N)[C@H](O)[C@H]3N=C(N)N)O[C@@H](C)[C@]2(O)C=O)O[C@@H](CO)[C@H](O)[C@H]1O	91
NC(=O)N1c2ccccc2C=Cc2ccccc21	95&99&93
CC/C(C)=N/N1C(=O)c2ccccc2NC1(C)CC (stereo unspecified)	103
COc1ccc(S(=O)(=O)NC2(C(=O)O)CCCCC2)cc1	100
C/C(CCc1ccc2c(c1)OCO2)=N\N=C(/N)SC1CC(=O)N(c2ccccc2)C1=O (stereo unspecified)	95
Cc1ccc2nc(SCCC3OCCO3)nc(=O)n2c1	91
O=c1[nH]nc(SCc2cccc3nsnc23)n1-c1ccccc1	96
N#Cc1cccnc1NNC(=O)c1ccccc1C(=O)O	101
COc1ccc(CCNC2CC(=O)N(C)C2=O)cc1OC (stereo unspecified)	97
Brc1ccc2nc3c(n2c1)CCCC3	96
O=C(NCCc1cn2ccccc2n1)c1ccccc1F	96
OCCN1CCN(C(=S)c2ccccc2O)CC1	94
CC(C)Oc1ccc(C(=O)N(CN2CCCC2=O)c2ccc(F)cc2)cc1	92
CC1CCN(CN2C(=O)c3ccccc3C2=O)CC1	102
COc1ccccc1NC(=S)NC(=O)C(C)C	90
CC(NC(=O)C(C)(C)C)C(c1cccs1)N1CCOCC1 (stereo unspecified)	94
NC(=O)Cn1nc2sc3ccccc3n2c(=O)c1=O	95
CCCC(=O)NC(=S)Nc1cccc(-c2nc3cc(C)cc(C)c3o2)c1C	94
CN(C)C(=O)c1ccc(I)cc1	103
CCC(C)N=C1NC=NC2SC(C3COc4ccccc4O3)=CC12 (stereo unspecified)	101
CSc1nc(N/C=C(\C#N)S(=O)(=O)c2ccccc2Cl)nc(N(C)C)n1	93
CN1CCN(S(=O)(=O)c2ccc(NC(=O)C(C)(C)C)cc2)CC1	109
COc1ccc(NC(=O)Nc2c(C)noc2-c2ccccc2)cc1	96
C=C(C)CN1C(=O)C(O)(c2c[nH]c3ccccc23)c2ccccc21 (stereo unspecified)	97
Cc1cc(C)c2c(N)c(-c3n[nH]c(=S)n3C)sc2n1	98
COc1cccc(N/C=C/C(=O)c2cccs2)c1	101
CCOc1ccc(NC(=S)Nc2cc(C)[nH]n2)cc1	94
CC(=O)OC1CCC2OC1CCC2OC(C)=O (stereo unspecified)	96
CCN(CC)c1c(S(=O)(=O)c2ccccc2)cnc2cc(OC)c(OC)cc12	90
COC(=O)c1cc(C=C(C#N)C#N)cn1C	99
Nc1ccccc1C(=O)NC12CC3CC(CC(C3)C1)C2	93
Cc1ccc2oc(-c3ccc(C(C)(C)C)cc3)nc2c1	92
CCN(CC)Cc1ccc(C(=O)O)cc1	88
N#Cc1cc2ccc(Br)cc2cc1C#N	94
O=C(CSCc1c(Cl)cccc1Cl)N1CCOCC1	97
COc1ccc(CCN2C(=O)C3C4C=CC(O4)C3C2=O)cc1OC (stereo unspecified)	89

Part of the list above in order of SMILES length, highest first.
SMILES	RVFV N-RNA inh
COc1ccc(CCN2C(=O)C3C4C=CC(O4)C3C2=O)cc1OC (stereo unspecified)	89
COc1ccc(Cl)cc1NC(=S)N1CCCCC1CO (stereo unspecified)	95
O=C(Cc1ccccc1)N/N=C/c1ccncc1	94
Cn1cnc2c1c(=O)[nH]c(=O)n2C	100

Following part:
SMILES	RVFV N-RNA inh
O=C(O)c1cc(Cl)ccc1OCc1ccccc1	90
CN1CCN(C(=O)c2ccc(C(=O)N3CCN(C)CC3)cc2)CC1	94
O=C1CC(N2CCCc3ccccc32)C(=O)N1c1ccc(Br)cc1F (stereo unspecified)	97
CC(CCCCC(=O)Nc1ccc(C(F)(F)F)cc1)NCCc1cnc[nH]1 (stereo unspecified)	100
Oc1ccc2ccccc2c1SSc1c(O)ccc2ccccc12	94&83
COc1ccc2c(c1)c(CC(=O)NCc1ccco1)c(C)n2C(=O)c1ccc(Cl)cc1	98
COc1cc2c(cc1OC)C(c1ccccc1)N(C(=O)c1ccco1)CC2 (stereo unspecified)	112
OC1CCN(CCc2ccccc2)CC1	99
CCN(CC)C(=O)c1sc(NC(=S)N2CCN(Cc3cnn(CC)c3C)CC2)c(C(=O)OC)c1C	94
O=C(NCc1ccccc1)c1cccnc1NC1CCCCC1	90
CSC(=S)Nc1ccc(C)cc1	92
O=C(CSc1nnnn1-c1ccccc1)n1c2ccccc2c2ccccc21	96
CN(C)S(=O)(=O)N(CC(=O)N1CCCC1)c1ccccc1	98
CC[N+](C)(C)c1cccc(O)c1	95&91
Cc1ccc(S(=O)(=O)CC(N)=O)cc1	91
COC(=O)C(=C/C(C)=C/c1ccco1)C(=O)OC	90
COCc1cnc(Nc2nc3ccccc3o2)nc1C(=O)OC	93
O=C(OCc1nnc(-c2ccccc2)o1)C1CC(=O)N(c2ccccc2)C1 (stereo unspecified)	108
CCSc1nc2c(c(=O)n1C)SCC2	101
Nc1nonc1-n1nnc(C(=O)N/N=C2\CCc3ccccc32)c1-c1ccccc1	90
CCCNc1sc(S(=O)(=O)CC)nc1S(=O)(=O)c1ccc(C)cc1	97
CCCCCCCCCCCCCCCC(=O)OC(CC(=O)O)C[N+](C)(C)C (stereo unspecified)	99
CC1(C)N=C(c2c(F)c(F)c(F)c(F)c2F)N(O)C1(O)c1ccccc1 (stereo unspecified)	95
CCOC(=O)c1ccc(NC(=O)c2cnc3sccn3c2=O)cc1	96
COc1ccc(N2C(=O)CC(NC34CC5CC(CC(C5)C3)C4)C2=O)cc1 (stereo unspecified)	92
O=c1[nH]c2ccccc2c2ccccc12	94
CC(=O)Nc1ccc(S(=O)(=O)NC2(C(F)(F)F)NC(=O)N(C3CCCCC3)C2=O)cc1 (stereo unspecified)	96
COC(=O)c1ccccc1NC(=O)Nc1ccc(Cl)cn1	90
Nc1cccc2c1C(=O)N(Cc1ccccc1)C2=O	65
Cc1ccc(N(CC(N)=O)S(=O)(=O)c2ccccc2)cc1	89
CCCC1CCCCNC1=O (stereo unspecified)	89
CCOC(=O)c1nc(-c2ccc(F)cc2)no1	98
COC(=O)C1=C(C)NC(C)=C(C(=O)OCCN(C)Cc2ccccc2)C1c1cccc([N+](=O)[O-])c1 (stereo unspecified)	99&97&97
Cc1cc(C)cc(NC2=NS(=O)(=O)c3ccccc32)c1	97
Cc1cc(C(C)Nc2ccccc2)c2nc(N3CCOCC3)cc(=O)n2c1 (stereo unspecified)	103
CC1(C)N=C2C(=N)C=CC=C2N1O	97
CCN1C(=O)C(=Cc2cc(C)n(C3CC3)c2C)C(=O)N(CC)C1=S	94
O=c1cc(CSc2nnnn2-c2ccccc2)[nH]c(=S)[nH]1	97
O=c1cc(CO)oc2c1OCN(C1CCS(=O)(=O)C1)C2 (stereo unspecified)	87
COc1cc(Cl)c(C)cc1NC(=O)CSC	99

Of the compounds above, these have a CF3 group.
SMILES	RVFV N-RNA inh
O=[S@@]1c2ccccc2Nc2cc(C(F)(F)F)ccc21	98
COC(=O)c1cc(OC)c(OC)cc1NC(=O)c1cnc(N(C)C)nc1C(F)(F)F	93
CC(CCCCC(=O)Nc1ccc(C(F)(F)F)cc1)NCCc1cnc[nH]1 (stereo unspecified)	100
CC(=O)Nc1ccc(S(=O)(=O)NC2(C(F)(F)F)NC(=O)N(C3CCCCC3)C2=O)cc1 (stereo unspecified)	96

The listing continues.
SMILES	RVFV N-RNA inh
CN(C)C12CC3CC(CC(C(=O)O)(C3)C1)C2	87
CCCCC(=O)N(c1ccc(C)c(C)c1)C1C=CS(=O)(=O)C1 (stereo unspecified)	98
Cc1cc(C)n2nc(SC/C(N)=N/O)nc2n1	110
Cn1c2nc3ccccc3nc2c2c(=O)n(Cc3ccccc3)cnc21	101
N#C/C(=C\C=N\Nc1ccccc1)c1nn(-c2ccccc2)c(-n2cccc2)c1C#N	101
C/C=C/C(=O)Nc1ccc(NC(C)=O)cc1	95
